# Cruzain inh Det: cruzain (T. cruzi) inhibition with detergent | Potency, µM, inactives show max response, negative = inhibition, actives largely listed as inhibitors | purified cruzain, Z-FR-AMC fluorescence, 0.01% Triton | hit rate 0.43% among 200,000 | AID 1478; active = well fitted curve in the direction sought with a large enough effect; inconclusive = small, poorly fitted or top-dose-only effect, or another doubt; inactive = no such curve, though single readings can be large; an effect the other way counts as inactive or inconclusive;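 note: plate controls were neutral wells for no effect and buffer without enzyme for full effect; nearly all actives have a fitted effect of over 40% in size; top concentration of the series not given in the record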
# Target sequence (P25779 123-467 limits assumed): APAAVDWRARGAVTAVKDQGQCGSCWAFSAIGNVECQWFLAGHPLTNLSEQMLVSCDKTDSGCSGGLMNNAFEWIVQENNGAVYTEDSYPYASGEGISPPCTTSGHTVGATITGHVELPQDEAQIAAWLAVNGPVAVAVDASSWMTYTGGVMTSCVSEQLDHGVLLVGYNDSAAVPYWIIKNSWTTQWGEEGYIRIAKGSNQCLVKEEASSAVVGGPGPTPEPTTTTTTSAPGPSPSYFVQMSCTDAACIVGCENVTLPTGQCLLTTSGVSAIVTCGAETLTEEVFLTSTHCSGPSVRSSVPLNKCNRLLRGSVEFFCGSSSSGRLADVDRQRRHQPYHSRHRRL
#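 Z-FR-AMC hydrolysis (2 uM substrate) by cruzain (1.5 nM) monitored kinetically at ex 360/em 450 nm after 15 min room-temperature compound exposure; 0.01% Triton X-100, pH 5.5, 5 mM DTT.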
# MARV entry inh: blocks Marburg virus binding to or entry into cells; Marburg virus pseudotyped entry inhibition, cell reporter; control for the full effect not named in the record; about a third of the inactives were read at about 46 µM; hit rate 1.8% among 300,000; Potency, µM (series often up to 37.8 µM), inactives show at the top dose activity change, negative = inhibition, actives largely listed as inhibitors; active = well fitted inhibition curve with a large enough effect; inconclusive = small, poorly fitted or top-dose-only effect, or effect the other way; inactive = flat fitted curve, though single readings scatter; tested in HEK293 cells; about a fifth of its hits are not listed in these tables; note: % is set by controls: 0 for no effect and ±100 for the full control effect; luciferase read-out
# NS1 inh: influenza NS1 inhibition. hit rate 0.4% among 270,000. Potency, µM (doses to about 46.1 µM), without a hit: at the highest dose activity, positive = more growth. AID 2326. S. cerevisiae slowed by influenza A NS1, growth recovery by OD600; note: actives are rising curves; nearly all actives have a fitted effect of over 50% in size
#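 In this qHTS, NS1 from influenza A is expressed in budding yeast, where it slows growth. Cells are switched from glucose to 2% galactose medium (pH 6.0, -URA), treated with compound, and growth recovery is read at OD600.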
# RE007 growth inh: less growth of the S. pombe RE007 Vpr strain; S. pombe RE007 Vpr strain, BacTiter-Glo ATP luminescence, 24 h; control for the full effect not named in the record; Potency, µM (series often up to 92.2 µM), inactives show at the highest dose activity change, negative = less growth; hit rate 0.21% among 360,000; active = well fitted falling curve with a large enough effect; inconclusive = small, poorly fitted or top-dose-only effect; inactive = no such curve, though single readings can be large or run the other way;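 note: % is set by controls: 0 for no effect and ±100 for the full control effect; nearly all actives have a fitted effect of over 50% in size; the assay follows cell death caused by Vpr and the record does not say whether a fall means rescue or toxicity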
#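 Fission yeast strain RE007, carrying one chromosomally integrated HIV-1 vpr copy, was seeded at OD 0.01 in PMG+AL medium with 23 nL pinned compound. After 24 h at 30 °C and 99% humidity, viability was read by BacTiter-Glo luminescence.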
# SARS PLpro yeast: inhibitors of SARS-CoV papain-like protease in yeast | S. cerevisiae expressing SARS-CoV PLpro, growth rescue; control for the full effect not named in the record | hit rate 0.19% among 330,000 | Potency, µM (titrated, usually from 32.9 µM), without a hit: at the highest dose activity, positive = growth rescue; note: 0% is about no effect; nearly all actives have a fitted effect of over 55% in size; growth read by luminescence after 48 h
# Cruzain noTriton: blocks cruzain activity in detergent-free assay. purified cruzain, Z-FR-AMC fluorescence, no detergent. Potency, µM, without a hit: max response, negative = inhibition, usual class: inhibitors. hit rate 2.3% among 200,000. AID 1476; active = well fitted curve in the direction sought with a large enough effect; inconclusive = small, poorly fitted or top-dose-only effect, or another doubt; inactive = no such curve, though single readings can be large; an effect the other way counts as inactive or inconclusive;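 note: plate controls were enzyme without inhibitor for no effect and buffer without enzyme for full effect; nearly all actives have a fitted effect of over 40% in size; top concentration of the series not given in the record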
#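 Detergent-free condition (0.00005% Triton X-100) in acetate buffer pH 5.5 with DTT. 1.5 nM enzyme and compound were pre-mixed 15 min, then 2 uM Z-FR-AMC substrate added; reaction progress from fluorescence change between first and third reads (60 s).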
# StopGo reporter: FMDV 2A StopGo reporter, luciferase signal; human cells with a luciferase reporter of 2A StopGo recoding; control for the full effect not named in the record; Potency, µM (highest dose often 57.9 µM), for inactives: at the top dose signal change, negative = less light; hit rate 1.2% among 410,000; active = well fitted falling curve with a large enough effect; inconclusive = small, poorly fitted or top-dose-only effect; inactive = no such curve, though single readings can be large or run the other way; tested in HEK293T cells; note: % is set by controls: 0 for no effect and ±100 for the full control effect; nearly all actives have a fitted effect of over 45% in size; luciferase light after 4 h
# Lassa entry inh: inhibitors of Lassa virus binding or cell entry. Lassa virus pseudotype entry inhibition, cell reporter; control for the full effect not named in the record. Potency, µM (top dose mostly 37.9 µM), without a hit: at the highest dose activity change, negative = inhibition, most hits filed as inhibitors. hit rate 1.2% among 300,000. AID 540256; active means well fitted inhibition curve with a large enough effect; inconclusive means small, poorly fitted or top-dose-only effect, or effect the other way; inactive means flat fitted curve, though single readings scatter; tested in HEK293 cells; note: % is set by controls: 0 for no effect and ±100 for the full control effect; nearly all actives have a fitted effect of over 50% in size; luciferase read-out
# Active calls of the source: *; ? = inconclusive; . = no result given; & = joins results of further samples; [ ] = remark or other dose. Unless noted, calls come from the whole dose curve; as a rule, active means well fitted rising curve with a large enough effect; inconclusive means small, poorly fitted or top-dose-only effect; inactive means no such curve, though single readings can be large or run the other way. Potency is the fitted concentration of half-maximal effect.
SMILES,Cruzain inh Det,MARV entry inh,NS1 inh,RE007 growth inh,SARS PLpro yeast,Cruzain noTriton,StopGo reporter,Lassa entry inh
COC(=O)c1c(C)oc(C)c1S(=O)(=O)Nc1ccccc1,.,.,4%,-16%,0%,.,61%[activator],.
N#Cc1cccc(OCC(=O)NC(=O)NCc2ccccc2)c1,.,15%[46.1 µM],.,15%,-8%,.,?,-4%
COc1ccc(-c2ccc(NS(=O)(=O)c3cc(C)c(C)cc3C)cc2)nn1,-6.8%,.,.,.,.,-4%,55%[activator],19%[46.1 µM]
Nn1c(SCc2cccc(Cl)c2)nnc1-c1ccncc1,.,-2%[46.1 µM],0%,0%,1%,.,9%,-2%
O=C(NC1CCCCC1)C(c1ccc(F)cc1)N(CCc1ccccc1)C(=O)CN1C(=O)c2ccccc2S1(=O)=O (stereo unspecified),2.8%,-24%,0%,23%,-8%,-8%,-28%,0%
COc1ccc(CNC(=O)c2ccc(NC(=O)N3CCSc4ncccc43)cc2)c(OC)c1,-9.2%,.,.,.,.,16%,-18%,-12%[46.1 µM]
O=C(COC(=O)c1cccnc1)Nc1ccc(F)cc1,3.7%,-1%,-2%,15%,1%,2%,-12%,10%
CC(=O)c1ccc(C(=O)N(CCN(C)C)c2nc3c(Cl)cccc3s2)cc1,.,?,.,-3%,2%,.,-11%,-4%[46.1 µM]
Nn1cnnc1N/N=C/c1cccc(Cl)c1Cl,.,?,-5%,-15%,-1%,.,-1%,?
COc1cccc(NC(=O)CCCNC(=O)Cn2cnc3sc(C)c(C)c3c2=O)c1,.,5%[46.1 µM],-5%,-1%,5%,.,11%,0%
COc1cc(CNc2ccc3[nH]c(=O)[nH]c3c2)cc(Cl)c1OCC(=O)NC(C)(C)C,-2.5%,?,-2%,-15%,-3%,-7%,-25%,?
CN1C/C(=C/c2ccsc2)C(=O)/C(=C/c2ccsc2)C1,-3.8%,5µM*,-11%,-22%,-11%,7%,28µM*,?
O=C(O)c1ccc(COc2ccc([N+](=O)[O-])cc2)o1,.,11%[46.1 µM],-1%,9%,2%,.,-4%,23%[46.1 µM]
CC(Sc1nnc(CNC(=O)c2ccccc2F)n1C)C(=O)Nc1nccs1 (stereo unspecified),.,6%[46.1 µM],21%,1%,-1%,.,-2%,-16%[46.1 µM]
CCCCNC(=O)C1(O)c2ccccc2NC(=O)N1c1ccc(Cl)cc1 (stereo unspecified),.,-15%[46.1 µM],-10%,-20%,0%,.,-1%,22%[46.1 µM]
O=C(Nc1cccc(F)c1)[C@@H](c1ccccc1)N1Cc2ccccc2C1=O,-2.9%,1%[46.1 µM],.,.,.,-4%,57%[activator],-27%[46.1 µM]
O=C(CSc1nc(-c2ccc(F)cc2)cs1)N1CCN(C(=O)c2ccco2)CC1,-6.2%,-8%,-9%,-9%,-2%,11%,-29%,7%
O=C(c1ccc2c(c1)OCO2)N1CCN(c2ccc(Cl)cc2)CC1,-0.7%,-4%,-67%,-13%,-3%,0%,.,?
C/C(=N\NC(=O)C(O)(c1ccccc1)c1ccccc1)c1ccc(C)o1,-3.4%,?,1%,0%,17%,-5%,3%,-21%
Cc1ccc(S(=O)(=O)N2CCN(C(=O)C3CCN(C(=O)c4ccccc4C)CC3)CC2)cc1C,.,?,.,-14%,0%,.,?,-17%
COc1ccccc1OCCC(=O)OCCN1C(=O)c2ccccc2C1=O,-0.5%,?,-22%,4%,10%,7%,0%,4%
COc1cc(/C=N/Nc2cc(C)nc(N)n2)ccc1O,.,0%,8%,6%,-1%,.,48%[activator],?
C=C(C)C(=O)Nc1cccc(C2=NOC3(C2)C[C@@H](C(N)=O)N(C(=O)C2(C)CC2)C3)c1 (stereo partly specified),.,.,5%,-11%,0%,.,-12%,.
COC(=O)c1ccc2nc(NC(=O)C3CCCCC3)sc2c1,.,?,2%,-10%,0%,.,-3%,14%
Cc1cc(Br)ccc1OCC(=O)NNC(=O)c1cnccn1,-1.8%,-22%,-10%,-17%,?,14%,-9%,?
CC(=O)c1sc(NC(=O)c2ccc(Br)o2)nc1C,.,.,-44%,-15%,-7%,.,0%,.
Cc1ccc(C)c(C(C)NC(=O)c2ccccc2Br)c1 (stereo unspecified),-0.6%,?,-9%,9%,?,-5%,-17%,-19%
Cc1ccccc1NC(=S)N1CCN(c2ccccc2)CC1,.,15%[46.1 µM],9%,7%,1%,.,-3%,0%[46.1 µM]
Clc1ccc(N2CCNCC2)nn1,.,-3%,.,12%,-1%,.,-1%,-1%
C/C=C(/CCC1NCCc2c1[nH]c1ccccc21)[Si](C)(C)C (stereo unspecified),.,?,.,-3%,.,.,28µM*,?
Cc1cc(NC(=O)c2cccc(S(=O)(=O)N3CCCCC3)c2)no1,.,9%,9%,0%,1%,.,1%,-4%
Cc1ccc(S(=O)(=O)N2C(=O)C(c3ccccc3)SC2=Nc2ccccc2)cc1 (stereo unspecified),0.1%,10%,16%,4%,3%,-1%,31%[activator],-2%
COc1ccc2oc(C(=O)OCC(=O)N3CCC(C)CC3)c(C)c2c1,.,24%[46.1 µM],-46%,-6%,-8%,.,-9%,-6%[46.1 µM]
CCN(/C=N/S(=O)(=O)c1ccc(Cl)cc1)CC,.,15%[46.1 µM],7%,-1%,0%,.,13%,.
Cc1cccc(C(=O)N2c3nc(-c4ccco4)nn3C3(CCCCC3)[C@@H]3CCCC[C@@H]32)c1,-2.1%,?,.,.,.,6%,?,-14%[46.1 µM]
Cc1ccc2nc(-c3ccccc3)cc(C(=O)N(C)CC(=O)Nc3ccccc3Br)c2c1,.,11µM*,.,1%,3%,.,-15%,?
CC1CN(Cc2ccccc2)c2ccccc2NC1=S (stereo unspecified),-8.1%,?,-7%,.,-57%,-6%,-8%,7%
CCn1c(C(=O)NCc2ccc(F)cc2)cc2oc3ccccc3c21,-9.5%,3.5µM*,.,.,.,-5%,0%,?
COc1ccc(-c2nnc(SCC(=O)c3cc(C)n(Cc4cccs4)c3C)o2)cc1,0.6%,-1%&13%,0%,-15%,-2%,-20%,-3%,18%
c1csc(-c2nn3c(Cn4nnc5ccccc54)nnc3s2)c1,1.0%,0%,-24%,7%,2%,-8%,-4%,?
COc1ccc(CNC(=O)C(C)N(Cc2ccccc2OC)C(=O)c2snc(C(N)=O)c2N)cc1 (stereo unspecified),.,-15%[46.1 µM],1%,22%,0%,.,-12%,.
O=c1c(=Nc2ccccc2O)c(=O)c2ccccc12,.,7%&7%[46.1 µM],-2%,-29%,-4%,.,29%,13%
O=C(O)C(Cc1ccc(Cl)cc1)NS(=O)(=O)c1ccc(Cl)cc1 (stereo unspecified),.,?,4%,-13%,2%,.,-17%,3%[46.1 µM]
CCN1CCn2c3c(c4cc(C)ccc42)CCCC31 (stereo unspecified),-11%,?,-2%,-5%,-2%,-1%,-19%,1%
O=C(c1ccc2c(c1)N(Cc1ccc(F)cc1)C(=O)c1ccccc1S2=O)N1CCOCC1 (stereo unspecified),1.4%,?,.,.,.,8%,-19%,14%[46.1 µM]
CCCCNC(=O)CSc1nnc(-c2ccc(S(=O)(=O)N3CCCC3)cc2)n1C,4.5%,-3%,1%,0%,6%,21%,.,-13%
CN(c1ccccc1C(=O)NCc1ccco1)S(C)(=O)=O,0.4%,?,9%,1%,0%,-6%,9%,2%
CCOCCCNC(=O)c1ccc2c(c1)N(CC)C(=O)c1ccccc1S2=O (stereo unspecified),.,-28%[46.1 µM],-1%,-5%,3%,.,6%,-26%[46.1 µM]
Cc1cccc(OCCCn2c(CCNC(=O)C3CCCCC3)nc3ccccc32)c1,2µM*,?,.,.,.,-4%,-22%,-7%[46.1 µM]
CCCCNC(=O)N1CCCC(C(=O)c2cc(C)c(OC)c(C)c2)C1 (stereo unspecified),.,-3%,-42%,-13%,9%,.,0%,4%
O=c1cc(CO)oc(CN2CCCC2)c1O,5.3%,?,-1%,-3%,2%,-4%,.,14%
O=c1[nH]c(=O)n(-c2ccccc2F)c(O)c1C=NCCC1=CCCCC1,.,-28%[46.1 µM],.,5%,-5%,.,-5%,-23%
Cc1cc(Nc2ccc(F)cc2C)n2ncnc2n1,-4.5%,0%,?,13%,5%,1%,-2%,.
COc1ccc(OC)c(NC(=O)C(CCSC)NS(=O)(=O)c2cccs2)c1 (stereo unspecified),-3.8%,?,-3%,-17%,-1%,4%,-11%&1%,-10%
CN1CCC(=NNC(=O)C(=O)Nc2cccc(Br)c2)CC1,.,?,.,2%,-1%,.,12%,10%
CCOc1ccc2c(c1)[N+](C)(C)C(C)(C)C=C2C,.,?,.,15%,1%,.,?,?
Cc1ccc(C(=O)NCC(=O)OCc2cc(=O)n3c(C)csc3n2)cc1,-7.8%,.,.,.,.,-11%,13%,11%[46.1 µM]
CCOCCCNC(=O)CN1C(=O)NC(Cc2c[nH]c3ccccc23)C1=O (stereo unspecified),.,.,2%,5%,1%,.,-7%,.
CCCN1CC(=O)N2C(c3ccccc3)c3[nH]c4ccccc4c3C[C@H]2C1=O (stereo partly specified),.,0%[46.1 µM],4%,10%,-1%,.,3%,-10%[46.1 µM]
CCCCCC(=O)Nc1ccc(S(=O)(=O)Nc2nccnc2OC)cc1,0.9%,5%,-5%,-27%,1%,11%,4%,4%
# Next part
SMILES,Cruzain inh Det,MARV entry inh,NS1 inh,RE007 growth inh,SARS PLpro yeast,Cruzain noTriton,StopGo reporter,Lassa entry inh
CC1Cc2ccccc2N1C(=O)c1ccc2c(c1)OCO2 (stereo unspecified),.,-7%[46.1 µM],.,-13%,.,.,4%,-21%[46.1 µM]
COc1cccc(C2C(C(=O)c3ccc(C)o3)=C(O)C(=O)N2CCN2CCOCC2)c1 (stereo unspecified),.,-1%[46.1 µM],-27%,21%,-3%,.,44%[activator],4%[46.1 µM]
NC(=O)c1nn(-c2ccccc2)nc1NC(=O)CN1CCCCC1,6.6%,10%,0%,0%,-3%,-1%,-4%,-1%
Cc1cc(C)n(CCCNC(=O)Cn2nnnc2CN2C[C@@H](C)O[C@@H](C)C2)n1,.,.,-11%,2%,6%,.,-4%,.
